Mtb betalactam: beta-lactam sensitization of Mtb H37Rv; M. tuberculosis H37Rv growth with meropenem, percent inhibition; hits of this screen are not shown here; inhibition, % at 25 µM; 0.27% of 330,000 active; AID 434955;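 active = about 74% or more and at least 40 points above the plate without the antibiotic, then above 30% in a dose series; inconclusive = first-round hits that could not be retested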;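 also: growth measured after seven days incubation then overnight dye step; 0% = bacteria only wells and 100% = bacteria with antibiotic; twin plates without the antibiotic show which effects depend on it; some results filed as inactive read as strong as hits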
RecA intein inh: blocks M. tuberculosis RecA intein splicing; 0.75% of 290,000 active; inhibition, %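 (about 9 µM by stock and volumes)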; P9WHJ3; cell-free RecA intein splicing, fluorescence; in the data active = inhibition above about 30%; inconclusive = no clear call, values can overlap the other calls;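 also: 0% = vehicle wells and 100% = reference inhibitor control wells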
Target sequence (P9WHJ3 whole entry, looked up): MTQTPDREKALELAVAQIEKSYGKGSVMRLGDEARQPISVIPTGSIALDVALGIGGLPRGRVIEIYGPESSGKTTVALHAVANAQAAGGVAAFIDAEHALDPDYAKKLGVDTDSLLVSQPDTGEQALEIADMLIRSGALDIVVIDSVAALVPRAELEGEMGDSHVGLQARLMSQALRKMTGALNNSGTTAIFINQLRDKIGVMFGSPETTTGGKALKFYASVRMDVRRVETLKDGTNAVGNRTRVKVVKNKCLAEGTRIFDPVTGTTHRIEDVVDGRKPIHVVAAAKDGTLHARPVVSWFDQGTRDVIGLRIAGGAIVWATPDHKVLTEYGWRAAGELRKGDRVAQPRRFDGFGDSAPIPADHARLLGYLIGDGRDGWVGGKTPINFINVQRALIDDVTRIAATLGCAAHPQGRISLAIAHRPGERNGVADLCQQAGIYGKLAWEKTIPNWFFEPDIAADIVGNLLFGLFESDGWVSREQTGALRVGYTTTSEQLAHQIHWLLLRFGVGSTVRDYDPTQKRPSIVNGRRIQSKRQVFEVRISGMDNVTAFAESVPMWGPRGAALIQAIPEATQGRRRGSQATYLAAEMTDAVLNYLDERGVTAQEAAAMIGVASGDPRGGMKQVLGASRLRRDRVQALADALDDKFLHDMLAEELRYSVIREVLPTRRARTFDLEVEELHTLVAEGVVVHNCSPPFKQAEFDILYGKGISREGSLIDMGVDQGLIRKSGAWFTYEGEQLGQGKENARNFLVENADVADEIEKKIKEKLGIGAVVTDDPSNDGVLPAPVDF
Mtb H37Rv: M. tuberculosis H37Rv growth inhibitors, H37Rv strain (AID 1626); M. tuberculosis H37Rv growth inhibition; higher % means a stronger effect; inhibition, % at 10 µM; hits with a dose series show IC50 in µM; 0.95% of 220,000 active;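 active = confirmed in a dose series; inconclusive = inhibition above 80% but not taken into the dose series; inactive = below 80% or under 30% at every dose of the series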;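 also: bacteria incubated seven days before Alamar blue readout; 0% = bacteria only wells and 100% = bacteria with antibiotic wells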
YopH PTP inh: blocks Yersinia enterocolitica YopH tyrosine phosphatase; AID 898; fluorescence Ex485/Em525; 0.16% of 140,000 active; inhibition, %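 (about 10 µM by stock and volumes)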;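 active = inhibition of 50% or more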;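 also: controls were vehicle for no effect and minimum signal wells for full effect; inactives centre near -20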
Arbovirus inh: blocks arbovirus infection; 0.37% of 200,000 active; arbovirus infection cell-based antiviral screen; inhibition, % at 10 µM;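 active = inhibition from about 30%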;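 also: bluetongue infection of BSR cells; cell survival read as ATP light after 72 h; 0% = infected wells without compound and 100% = uninfected wells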
Arbovirus inh repeat: further read-out of Arbovirus inh, marked with its call; inhibition, %; measured here: 10K subset replicate screen; many hits read low in the repeat;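 first of two repeat runs on a subset; 0% = infected and 100% = uninfected wells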
* marks the source's active call; other numbers are inactive results; ? = inconclusive; . = no result given; & = joins results of further samples. Some of the compounds tested (hit frequency here may not be typical).

SMILES	Mtb betalactam	RecA intein inh	Mtb H37Rv	YopH PTP inh	Arbovirus inh	others
Cn1nnnc1SCC(=O)Nc1cc(C(F)(F)F)ccc1N1CCOCC1	-2	4.1	0%	.	10
CCC(=O)NC1=C(NC(C)c2ccccc2)C(=O)c2ccccc2C1=O (stereo not given)	-1	9.3	5%	-1	6
CS(=O)(=O)N(CC(=O)N1CCCC1)Cc1ccc(F)cc1	9	1.0	.	.	.
CN1CCN(C(=O)CCN2C(=O)/C(=C\c3ccc(Cl)cc3)SC2=S)CC1	3	8.7	.	.	.
Cc1ccc(-c2cn(-c3ccccc3)c3[n+]2CCCS3)cc1	41&8	0.0	3%&-1%	-23&-9	6&13
CCOC(=O)C1CCN(c2ncnc3c2cnn3-c2ccc(OC)cc2)CC1	97	.	.	-7	5
Cc1cc(/C=C(\C#N)C(N)=O)c(C)n1-c1ccc(N2CCOCC2)c([N+](=O)[O-])c1	-4	-0.6	6%	-15	-2
O=C(O)/C=C/C(=O)Nc1ccc2c(c1)NC(=O)CO2	-1	-3.3	8%	.	16
Cc1ccc(NC(=O)CCC(=O)c2cccs2)c(O)c1	-1	-2.9	-1%	.	.
Cc1cccc(NC(=O)N2CCc3ccccc3C2)c1C	-5	1.2	.	.	.
O=C(NC1CCCCC1)N1CCN(c2ccc(Cl)cc2)CC1	4	2.9	.	.	.
Cc1nn(C(C)C)c(C)c1[C@@H]1C[C@H]2CN(Cc3cccc(Cl)c3)C(=O)[C@]23CCCN13	-9	1.4	0%	.	.
CC(C)(C)c1nnc(NC(=O)c2cccnc2)s1	-1	0.2	6%	.	1
CCOC(=O)c1ccccc1C(=O)N1CCOCCOCCOCC1	1	0.5	6%	-38	1
Cc1cc2oc(=O)cc(CN3CCOCC3)c2c(C)c1Cl	4	3.4	.	.	.
Cc1ccc2c(c1)N(CC(=O)N1CCCC1)C(=O)c1cccnc1O2	?	-1.7	.	.	.
COc1cccc(N2CCCn3c2nc2c3c(=O)n(CCN3CCOCC3)c(=O)n2C)c1	.	1.7	-7%	-14	9
COc1cc(NC(=O)c2ccc3c(c2)C(=O)N(CCC(C)C)C3=O)c(C(=O)O)cc1OC	0	-1.2	.	.	.
CCCCOc1ccc(C(=O)N/C(=C/C=C/c2ccccc2)C(=O)NCCCO)cc1	-1	10	2%	-5	-17
NCCCC[C@@H]1NC(=O)[C@H](CCC(=O)O)NC(=O)c2cc([N+](=O)[O-])cc(I)c2OCC[C@@H](C(N)=O)NC1=O	-5	.	-14%	-6	6
COc1ccc(NC(=O)CCCNC(=O)Cn2cnc3sc4c(c3c2=O)CCCC4)c(OC)c1	1	1.2	.	.	.
CC(C)(O)[C@@H]1[C@@H]2C[C@@]3(CC[C@]4(C)C(CCC5[C@@]6(C)CC[C@H](O)C(C)(C)C6CC[C@]54C)[C@@H]13)C(=O)O2 (stereo not given in full)	-7	-1.7	-2%	.	.
CCN1CCN(Cc2cc(=O)oc3ccc(Cl)cc23)CC1	3	1.8	-11%	6	9
CCN(CC(=O)Nc1c(F)cccc1F)C(=O)c1ccc(N2CCCCC2)c([N+](=O)[O-])c1	-13	-3.0	.	.	.
COCC(C)n1c(SCc2ccc(C(=O)OC)cc2)nc2ccccc2c1=O (stereo not given)	7	9.9	.	.	.
O=C(CCc1nnc(-c2ccccc2)o1)NCc1c(F)cccc1F	2	0.6	-3%	.	5
COc1cccc(/C=N/n2c(C3CCCCC3)n[nH]c2=S)c1OC	?	-2.0	.	.	.
CCOc1cccc(-c2nn(-c3ccccc3)cc2/C=C(/C#N)C(=O)NCCCn2ccnc2)c1	100	-3.8	?	-24	-39
CC(NC(=O)c1ccc(Cn2cc([N+](=O)[O-])cn2)cc1)c1ccccc1 (stereo not given)	-5	-0.6	3%	-18	2
CCOC(=O)N1CCN(C(=O)COc2ccc(Br)cc2)CC1	-4	.	5%	-28	-1	Arbovirus inh repeat=3
COc1ccc(-c2oc(NC(C)=O)c(C#N)c2-c2ccc(OC)cc2)cc1	-3	4.9	8%	3	-26
O=C(C1=C[C@@H](c2ccccc2)C[C@@H](OCc2ccc(CO)cc2)O1)N1CCOCC1	1	-1.1	-5%	.	0
CONc1nc(NC(C)(C)C)nc(OCC#N)n1	-6	-2.2	6%	-11	-7
CCCCC12CN3CC(C)(CN(C1)C31C(=O)N(C)c3ccc(C)cc31)C2=O (stereo not given)	-4	0.2	0%	-15	7
COc1ccc(NS(=O)(=O)c2cc(NC(=O)c3cccs3)ccc2N2CCCC2)cc1	64	13	11%	-27	-18
CCC1Oc2ccccc2N(CC(=O)NCc2ccco2)C1=O (stereo not given)	0	-1.1	-3%	.	-6
COc1ccc(/C=N/NC(N)=S)cc1OC(=O)c1ccccc1	91	2.8	-12%	5	12
CC(=O)Nc1ccc(S(=O)(=O)N2CCN(CCCOc3ccccc3Cl)CC2)cc1	-8	3.3	-6%	-12	0
Nc1nc(SCC(=O)NCCN2CCOCC2)nc2sc3c(c12)CCC3	1	0.1	-4%	-23	4
COC(=O)c1ccc(CSCC(=O)Nc2ccccc2)cc1	65	-3.1	26%	.	2
CC(=O)Nc1ccc(NC(=O)CCCCCn2nnc3ccccc3c2=O)cc1	0	-1.7	.	.	.
O=C(OCc1ccc(F)cc1)c1ccc2ccccc2n1	99	1.4	8.2µM*	.	14
Cn1c(=O)c(=O)n(C)c2cc(N3CCCCC3)c(NS(=O)(=O)c3ccc(Br)cc3)cc21	-2	4.7	.	.	.
CCc1ccc(C(=O)CCC2CCCCC2=O)cc1 (stereo not given)	-1	2.9	-12%	15	-3
CCc1ccccc1NC(=O)CSc1nc2c(c(-c3ccco3)c1C#N)CCCC2	1	-2.7	3%	-51	-6
CCc1ccc(OCCn2cccn2)cc1	-8	1.2	1%	.	6
CCN(CC)CCn1c(=O)n(-c2ccc(Cl)cc2)c(=O)c2c3c(sc21)CN(C)CC3	-2	-4.9	10%	.	.
CCOC(=O)Cc1csc(NC(=O)COc2cccc(C)c2)n1	6	-7.6	-2%	.	9
CC(C)CCN1C(=O)c2ccc(C(=O)OCn3nnc4ccccc4c3=O)cc2C1=O	99	1.5	45%	-23	1
Oc1ccc(Cl)cc1CN1CCN(Cc2ccccc2)CC1	2	0.0	3%	-23	11
CCc1cc(=O)oc2cc(OCC(N)=O)c(Cl)cc12	-16	0.3	-7%	-18	0
COc1ccc(NC(=O)CNc2cc(S(=O)(=O)N3CCOCC3)ccc2NCC2CCCO2)cc1 (stereo not given)	2	11	-2%	.	-12
CCn1c(=O)c(C(=O)NNS(=O)(=O)c2ccc(C)cc2)c(O)c2ccccc21	-2	8.5	1%	-28	6
COc1ccccc1NC(=O)CN(Cc1ccco1)C(=O)c1cccs1	?	3.0	4%	-44	3
C=CCC1c2cccc(C(=O)O)c2C(=O)N1c1cccc(C)c1 (stereo not given)	7	-1.1	-7%	-7	-1
Cc1ccc(S(=O)(=O)N2CN(CC3CCCO3)c3nc4ccccc4nc32)c(C)c1 (stereo not given)	0	4.9	.	.	.
O=C(/C=C/c1ccco1)N1CCN(S(=O)(=O)c2ccc(F)c(F)c2F)CC1	-5	0.3	1%	.	9
Cc1ccnc(NS(=O)(=O)c2ccc(NC(=O)/C=C/c3ccccc3)cc2)n1	18	0.3	-4%	.	.
CCC/C(=N/NC(=O)c1ccccc1Cl)c1ccccc1	33	5.2	4%	.	-8
CCN(C(=O)COc1cccc2cccnc12)C1CCS(=O)(=O)C1 (stereo not given)	1	7.0	-2%	.	20

(list continues)
SMILES	Mtb betalactam	RecA intein inh	Mtb H37Rv	YopH PTP inh	Arbovirus inh	others
Nc1ncnc2sc3c(c12)CCNC3	1	-1.1	.	.	.
CCOC(=O)C(NC=O)(NC(C)(C)C)C(=O)OCC	-9	-0.3	-10%	-40	11
Cc1ccccc1NS(=O)(=O)c1cccc2nonc12	-2	1.6	.	.	.
COc1ccc2c(c1)C1=NN(/C(C)=C/C(C)=O)C(c3cccc(F)c3)C1CC2 (stereo not given)	9	6.8	5%	-2	17
Cc1cc(C)n(/C(=C/N(C)C)C(=O)c2ccccc2)n1	7	0.6	-2%	.	10
Fc1ccccc1-c1nc(NCCCN2CCOCC2)c2ccccc2n1	3	-1.0	-1%	-20	0
COc1ccc(CCNC(=O)Cn2c(=O)oc3ccccc32)cc1OC	-9	0.3	-3%	-36	9
CCCCSC1=N/C(=C/c2ccsc2)C(=O)N1c1ccccc1	9	-2.5	18%	-27	2
Cc1nonc1NC(=O)CSc1ccc(-c2ccccc2)nn1	100	-0.7	29%	-45	-10
O=C(COC(=O)CCc1ccccc1)Nc1cc(S(=O)(=O)N2CCOCC2)ccc1N1CCCC1	0	3.7	3%	.	7
Cc1ccc(C(=O)Nc2cccnc2)cc1S(=O)(=O)N1CCCC1	-8	-0.3	.	.	.
COc1cccc(C2CC(c3c(Cl)cccc3Cl)n3nc(N)nc3N2)c1 (stereo not given)	-3	0.0	-3%	-7	11	Arbovirus inh repeat=9
O=C(COc1ccc(S(=O)(=O)N2CCCCC2)cc1)N1CCCC1	-5	3.7	.	.	.
Cc1nc(NS(=O)(=O)c2ccccc2)sc1C(=O)N/N=C/c1ccccc1	18	1.2	-10%	.	.
O=C(O)c1ccc(N=C2NC(=O)C(CO)(CO)S2)cc1	-7	-0.3	.	.	.
Cn1c(Cn2c(=O)sc3ccccc32)nnc1SCC(=O)Nc1ccc(F)cc1	4	0.0	2%	-29	3	Arbovirus inh repeat=1

Filtered by structure: the entries above with a Cl atom.
SMILES	Mtb betalactam	RecA intein inh	Mtb H37Rv	YopH PTP inh	Arbovirus inh	others
CN1CCN(C(=O)CCN2C(=O)/C(=C\c3ccc(Cl)cc3)SC2=S)CC1	3	8.7	.	.	.
O=C(NC1CCCCC1)N1CCN(c2ccc(Cl)cc2)CC1	4	2.9	.	.	.
Cc1nn(C(C)C)c(C)c1[C@@H]1C[C@H]2CN(Cc3cccc(Cl)c3)C(=O)[C@]23CCCN13	-9	1.4	0%	.	.
Cc1cc2oc(=O)cc(CN3CCOCC3)c2c(C)c1Cl	4	3.4	.	.	.
CCN1CCN(Cc2cc(=O)oc3ccc(Cl)cc23)CC1	3	1.8	-11%	6	9
CC(=O)Nc1ccc(S(=O)(=O)N2CCN(CCCOc3ccccc3Cl)CC2)cc1	-8	3.3	-6%	-12	0
CCN(CC)CCn1c(=O)n(-c2ccc(Cl)cc2)c(=O)c2c3c(sc21)CN(C)CC3	-2	-4.9	10%	.	.
Oc1ccc(Cl)cc1CN1CCN(Cc2ccccc2)CC1	2	0.0	3%	-23	11
CCc1cc(=O)oc2cc(OCC(N)=O)c(Cl)cc12	-16	0.3	-7%	-18	0
CCC/C(=N/NC(=O)c1ccccc1Cl)c1ccccc1	33	5.2	4%	.	-8
COc1cccc(C2CC(c3c(Cl)cccc3Cl)n3nc(N)nc3N2)c1 (stereo not given)	-3	0.0	-3%	-7	11	Arbovirus inh repeat=9
